Assay outcomes (PubChem)
TsaE inh = YjeE (TsaE) inhibition, E. coli; 71,000 compounds, 0.05% hits; P0AF67; Potency, µM; purified YjeE, fluorescence polarisation of a bound ADP probe; active = well fitted falling curve; inconclusive = weaker or top-dose-only fall, or a rising curve; inactive = flat or poorly fitted curve;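 further: top concentration of the series not given in the record; excess ADP was the control for the full effect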
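Purified YjeE (10 uM) with BODIPY Texas Red-labeled ADP probe (2 uM); compounds pin-transferred, 15 min at room temperature. Binding inhibition read as decreased fluorescence polarization; ADP titration as control.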
PK Bst = alters activity of Bacillus stearothermophilus pyruvate kinase | partly purified Bacillus stearothermophilus pyruvate kinase, luminescence ATP production; ribose 5-phosphate activator present at AC10 | Potency, µM | AID 361 | 51,000 compounds, 1.2% hits; in the data active means potency below about 11 µM; inconclusive means mostly about 12 µM to 25 µM; inactive means weaker than that;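 the screen sought inhibitors and activators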;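 further: potency means the concentration at half of the fitted maximal effect; scaled between full activation by ribose 5 phosphate and full inhibition by luteolin; about four in five hits inhibit and the cells do not say which; series up to 57 µM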
* hit, by the source's call; i = inactive; ? = inconclusive; · = not tested or not shown.

SMILES	TsaE inh	PK Bst
N/N=C1/c2ccccc2N[C@H]1OC(=O)Nc1ccccc1	i	·
CN(CCNC(=O)c1cn(C)c2ccc(S(=O)(=O)N(C)C)cc2c1=O)CCc1ccccc1	i	·
CCOC(=O)Cc1csc2nc3sc(C)c(C)c3c(=O)n12	i	>57
CCOc1cccc(C(=O)N(Cc2ccco2)C2CCS(=O)(=O)C2)c1 (stereo not drawn)	i	>57
Cc1cc(C)c2nc(N)sc2c1	i	·
COc1cccc(=O)c2c(C)oc(C)c12	i	>57
O[C@H](CN1CCN(c2cccc(Cl)c2)CC1)C(c1ccccc1)c1ccccc1	i	·
CCCNS(=O)(=O)c1ccc(OCC(=O)NCCCOC)cc1	i	>57
CCC(=O)N1CCN(c2ccc(NC(=O)c3ccc4c(c3)OCO4)cc2)CC1	i	>57
COc1cc2ccccc2cc1C(=O)Nc1cccnc1	i	i
Cc1ccccc1-c1cncnc1NCCN1CCOCC1	i	·
CC(C)Cn1nc(NS(=O)(=O)c2ccccc2)c2cc3ccccc3nc21	i	4.2*
Cc1[nH]c(=S)n(CC2CCCO2)c1C (stereo not drawn)	i	>57
O=S(=O)(c1ccc2c(c1)nc(COc1ccc(Cl)cc1)n2CC1CCCO1)N1CCOCC1 (stereo not drawn)	i	>57
CSCCC(NC(=O)c1ccc(C)o1)C(=O)O (stereo not drawn)	i	>57
COc1ccc(Cn2nnnc2C(c2cccnc2)N2CCN(c3ccc(O)cc3)CC2)cc1 (stereo not drawn)	i	>57
O=C(C1CCCN(S(=O)(=O)c2cccnc2)C1)N1CCN(c2ccccn2)CC1 (stereo not drawn)	i	·
COCC(=O)N1CCC2(CCN(Cc3ccncc3)CC2)CC1	i	·
Cn1nnnc1SCc1nc2ccccc2s1	i	>57
COc1ccc(C)cc1-n1c(-c2ccncc2)n[nH]c1=S	i	>57
CC(C)(C)n1nnnc1C(c1ccncc1)N1CCCCCC1 (stereo not drawn)	i	>57
COC(=O)[C@H](Cc1ccccc1)NC(=O)[C@H]1C[C@@H]1[C@H](NC(=O)OCc1ccccc1)c1ccccc1	i	·
Cc1nn2c(c1-c1ccccc1)N=C(c1ccco1)CC2c1ccccc1 (stereo not drawn)	i	>57
c1ccc(-c2nc3c4ccccc4nc(N4CCN(c5ccccn5)CC4)n3n2)cc1	i	>57

PK Bst, entries above that show a hit.
SMILES	TsaE inh	PK Bst
CC(C)Cn1nc(NS(=O)(=O)c2ccccc2)c2cc3ccccc3nc21	i	4.2*

Next structures follow.
SMILES	TsaE inh	PK Bst
Cc1nnc(SCC(=O)N(C)Cc2ccccc2)[nH]c1=O	i	>57
COc1ccc(C2C(C(=O)OC3CCCCC3)=C(C)Nc3nnnn32)c(OC)c1OC (stereo not drawn)	i	>57
O=C1CCCC2=C1C(c1ccccc1)CC(=O)N2c1ccccc1 (stereo not drawn)	i	>57
Cc1ccc(Cn2c(=O)n(Cc3ccco3)c(=O)c3ccccc32)cc1	i	>57
O=C(Nc1cccc(F)c1)c1c(F)c(F)c(F)c(F)c1F	i	>57
O=C(CCN1CCc2ccccc2CC1)c1ccc2c(c1)OCCO2	·	>11
COC(=O)C1=C(NC(=O)c2ccc(C)cc2)CCS1	i	>57
CC(C)CCOC(=O)/C=C/c1ccccc1	i	·
CC(C)Oc1cc2oc(=O)c3c(c2cc1Cl)CCC3	i	>57
CCN(CC(=O)NC1CCCC1)S(=O)(=O)c1ccc(C)cc1	i	>57
COc1ccc(C(=O)Nc2ccc(S(=O)(=O)Nc3cc(C)nc(C)n3)cc2)c(OC)c1	i	·
O=C(CN1C(=O)CNC1=O)Nc1cccc(C(F)(F)F)c1	i	>57
CCc1nc(N)c(C#N)c(-c2ccc(OC)c(OC)c2)c1C	i	>57
Cc1ccc(C)c2[nH]c(=O)c(CN(Cc3ccc4c(c3)OCO4)Cc3nnnn3Cc3ccco3)cc12	i	>57
Cc1nc2nc(-c3cccnc3)nn2c(C)c1Cl	i	>57
O=C(NCCc1ccccc1)C1CC(=O)N(C2CCCCCC2)C1 (stereo not drawn)	i	>57
O=C(CSc1nc2ccccc2[nH]1)NCc1ccco1	i	·
CC(C)Cc1ccc(S(=O)(=O)N2CCN(C(=O)c3ccco3)CC2)cc1	i	>57
Cc1ccc(-n2c3c(cc(C(=O)Nc4cccc(C)n4)c2=O)C(=O)CCC3)cc1	i	>57
Cc1ccc(C(=O)NC2CCS(=O)(=O)C2)cc1S(=O)(=O)N1CCCCC1 (stereo not drawn)	i	>57
C[C@@]12C(=O)OC(=O)[C@@]1(C)[C@H]1CC[C@@H]2O1	i	·
c1cc(CN2CCCCC2)cc(OCCCNc2nc3ccccc3s2)c1	i	·
COCCCn1c2nc3ccccc3nc2c2c(=O)n(-c3ccccc3OC)c(C)nc21	·	>26
Cc1ccc2oc(=O)c3cnn(CC(=O)Nc4ccccc4N4CCN(C)CC4)c3c2c1	i	·
CC(C)(C)NC(=O)C(c1ccccc1F)N(Cc1ccco1)C(=O)c1csnn1 (stereo not drawn)	i	>57
Cc1ccccc1-c1ccc2ncnc(-n3ccnc3)c2c1	i	·
CN(C)CCCOC(=O)Cc1ccc(Cl)cc1	i	>57
CC(C)OC(=O)CSc1nnc(-c2cnccn2)n1-c1ccccc1	i	>57
O=C(Nc1cc(C(F)(F)F)ccc1N1CCOCC1)c1ccco1	i	>57
COc1cc(C2=NOC(C(=O)Nc3ccc(C(C)=O)cc3)C2)cc(OC)c1OC (stereo not drawn)	i	>57
Nc1nc(N)c2sc3nc4c(cc3c2n1)CCC4	i	?
Cc1ccc(-n2nnnc2SC(C)C(N)=O)c(C)c1 (stereo not drawn)	i	>57
CCCOc1ccccc1C(=O)N(Cc1ccco1)C1CCS(=O)(=O)C1 (stereo not drawn)	i	>57
CCOC(=O)C1=C(C)NC(SCC(=O)OC)=C(C#N)C1c1ccc(C(=O)OC)cc1 (stereo not drawn)	i	>57
Cc1ccc(NC(=O)CN(C)S(=O)(=O)c2cccs2)cc1F	i	>57
Cn1c(NC(=O)c2ccccc2Br)cc(=O)n(C)c1=O	i	·
COc1cccc(C(=O)Cn2c(N3CCCCC3)nc3c2c(=O)n(C)c(=O)n3C)c1	i	>57
CC(=O)Nc1ccc(S(=O)(=O)Nc2c(C)n(C)n(-c3ccccc3)c2=O)cc1	i	>57
COc1ccc(C2/C(=C(/O)c3ccccc3)C(=O)C(=O)N2C)cc1 (stereo not drawn)	i	·
COc1ccc2c(c1)C(=O)N(c1ccccc1OC)C(=O)C2	i	>57
COC(=O)COc1ccc(S(=O)(=O)Nc2ccc(NC(C)=O)cc2)cc1	i	>57
COc1ccc(C(=O)N2CCC[C@@]3(CCN(Cc4nccs4)C3)C2)cc1	i	·
O=C(NCCCN1CCOCC1)c1cccs1	?	>57
COc1ccc(N2C(=O)CCC(C(=O)N(C)C3CCCCC3)C2c2ccc(OC)c(OC)c2)cc1 (stereo not drawn)	i	>57
COc1ccc(-n2c(SCC(=O)Nc3nccs3)nc3c(c2=O)SCC3)cc1	i	·
CC1CCN(C(=O)CN(c2ccc3c(c2)OCO3)S(C)(=O)=O)CC1	i	>57
OC[C@H]1O[C@H](n2cnc3c(NC4CCCC4)nc(Cl)nc32)[C@@H](O)[C@@H]1O	i	·
Cn1cc(-c2nc3cncnc3n(CCN)c2=O)c2ccccc21	i	·
Cc1cc2ncn(C(=O)N3CCCCC3)c2cc1C	i	>57
COCCCNC(=O)CS(=O)Cc1nc(-c2cccc(OC)c2)oc1C (stereo not drawn)	i	>57
Cc1cccc(C)c1NS(=O)(=O)c1c(C)[nH]c(=O)[nH]c1=O	i	>57
CCc1c(C(=O)Nc2ccc(OC)c(Cl)c2)[nH]c(C)c1C(C)=O	i	3.1*
O=C(CCCC(=O)N1CCN(c2ccccc2F)CC1)N1CCN(c2ccccc2F)CC1	i	>57
COc1ccc(C2NC(=O)NC3=C2CCc2ccccc23)cc1 (stereo not drawn)	i	·
CCOC(=O)N1CCN(C2=CC(=O)OC23CCCCC3)CC1	i	>57
CC(=O)Nc1ccc(S(=O)(=O)NCCc2cc3c(C)ccc(C)c3[nH]c2=O)cc1	i	·
O=C1COc2ccc(C(=O)COC(=O)Cn3cnc4ccccc43)cc2N1	i	>57
N[C@@H](C(=O)O)c1ccc(C(=O)O)cc1	i	·
Oc1c(CN2CCCCC2)cc(COCc2ccccc2)c2cccnc12	i	>57
CCCn1c(C)nc2c(NCCCN(CCO)CCO)nc(C)nc21	i	·

Compounds from the list above that contain a Cl atom, in the order listed:
SMILES	TsaE inh	PK Bst
O[C@H](CN1CCN(c2cccc(Cl)c2)CC1)C(c1ccccc1)c1ccccc1	i	·
O=S(=O)(c1ccc2c(c1)nc(COc1ccc(Cl)cc1)n2CC1CCCO1)N1CCOCC1 (stereo not drawn)	i	>57
CC(C)Oc1cc2oc(=O)c3c(c2cc1Cl)CCC3	i	>57
Cc1nc2nc(-c3cccnc3)nn2c(C)c1Cl	i	>57
CN(C)CCCOC(=O)Cc1ccc(Cl)cc1	i	>57
OC[C@H]1O[C@H](n2cnc3c(NC4CCCC4)nc(Cl)nc32)[C@@H](O)[C@@H]1O	i	·
CCc1c(C(=O)Nc2ccc(OC)c(Cl)c2)[nH]c(C)c1C(C)=O	i	3.1*

(continued)
SMILES	TsaE inh	PK Bst
Cc1ccccc1OCC(=O)Nc1ccccc1N1CCCCC1	i	>57
COc1ccc(CN2C(=O)CCC2(C)C(=O)NCc2cccnc2)c(OC)c1 (stereo not drawn)	i	>57
CC1(C)NC(=O)N(CC(O)COc2cccc(F)c2)C1=O (stereo not drawn)	i	·
Cc1nc(NCc2ccccn2)c2ccccc2n1	i	>57
O=S(=O)(c1ccc(Cl)c(F)c1)N1CCC(c2nc(-c3ccncc3)no2)CC1	i	>57
Cc1c(C2(O)C(=O)Nc3ccc(F)cc32)c(=O)n(-c2ccccc2)n1C (stereo not drawn)	i	>57
CN1CCN(c2ncc3nc(-c4cccs4)c(=O)n(CCC#N)c3n2)CC1	i	·
COc1cc(C2C3C(C)N(C)C(=O)N(C)C3N(C)C(=O)N2C)ccc1O (stereo not drawn)	i	>57
O=C(N1CCOCC1)N1CCCC(c2nc(-c3cccs3)no2)C1 (stereo not drawn)	i	>57
CCCCCOC(=O)Cn1c(N2CCCCCC2)nc2c1c(=O)[nH]c(=O)n2C	i	>57
N#Cc1ccc(CN2CCN(C(=O)c3ccccc3)CC2)c(Cl)c1	i	>57
Nc1nc2sc3c(c2c(=O)s1)CCCC3	i	?
COc1ccc(-n2nnnc2S(=O)(=O)Cc2ccc(C(=O)O)cc2)cc1	i	>57
CCOC(=O)Cc1csc(NC(=O)c2c(-c3c(F)cccc3Cl)noc2C)n1	i	>57
COc1cccc(-c2ccc3ncnc(NC4CC4)c3c2)c1	i	·
CCCn1c(-c2ccc(F)cc2)nc2c(N3CCN(Cc4nc(OC)cc(OC)n4)CC3)nc(C)nc21	i	·
CCN1CCN(C(=O)N[C@@H](C(=O)N[C@@H]2C(=O)N3[C@@H]2SC(C)(C)[C@@H]3C(=O)O)c2ccccc2)C(=O)C1=O	·	>26
CC1CCN(CCCNC(=O)c2cc3sccc3n2C)CC1	i	>57
CS(=O)(=O)N(CC(=O)N1CCCCCC1)c1ccccc1	i	>57
CCOC(=O)N1CCN(C(=O)c2ccc(Cn3c(=S)[nH]c4cc5c(cc4c3=O)OCO5)cc2)CC1	i	>57
NC(=O)c1ccc(N2CCCCC2)c(N2C(=O)C3C4C=CC(C4)C3C2=O)c1 (stereo not drawn)	i	·
CC(=O)Nc1c(C(=O)O)oc2ccc(Cl)cc12	i	>57
COc1ccc2c(=O)cc(C(F)(F)C(F)(F)F)oc2c1	i	·
Cc1cccc(NCc2ccccc2O)c1	i	>57

As entered above:
CC(=O)Nc1c(C(=O)O)oc2ccc(Cl)cc12 in PK Bst reads >57
CCN1CCN(C(=O)N[C@@H](C(=O)N[C@@H]2C(=O)N3[C@@H]2SC(C)(C)[C@@H]3C(=O)O)c2ccccc2)C(=O)C1=O in PK Bst reads >26
CC1CCN(CCCNC(=O)c2cc3sccc3n2C)CC1 in PK Bst reads >57
COc1ccc(-n2nnnc2S(=O)(=O)Cc2ccc(C(=O)O)cc2)cc1 in PK Bst reads >57
Cc1cccc(NCc2ccccc2O)c1 in PK Bst reads >57

Carrying on:
SMILES	TsaE inh	PK Bst
COc1cc2c(cc1OC)CN(Cc1nc3ccsc3c(=O)[nH]1)CC2	i	>57
Cc1cnc(NC(=O)CN(C)S(=O)(=O)c2ccc(Cl)cc2)s1	i	>57
Cn1c(=O)oc2cc(S(=O)(=O)N3CCCC(C(=O)N4CCn5c4nc4ccccc45)C3)ccc21 (stereo not drawn)	i	·
COCC(=O)n1nc(NCc2ccc(OC)cc2)nc1NCc1ccc(OC)cc1	i	>57
Cc1cc(C)c2cc(C(O)c3nnnn3Cc3ccccc3)c(=O)[nH]c2c1 (stereo not drawn)	i	>57
C=CCN=C(NC#N)SCC(=O)c1cccc(OC)c1	i	>57
C=CCSc1nnc(-c2ccccc2NC(=O)CC)c(=O)[nH]1	i	>57
O=C(O)C1C2C=CC(O2)C1C(=O)Nc1ccccc1C(F)(F)F (stereo not drawn)	i	>57
CCN(CC)c1ccc(C2CC(=O)NC3=C2C(=O)CC(C)(C)C3)cc1 (stereo not drawn)	i	>57
CC(O)CNc1nc2c(c(=O)n(C)c(=O)n2C)n1CCc1ccccc1 (stereo not drawn)	·	>26
COc1ccc(C[N+](C)(C)N)cc1OC	i	·
O=C(CSc1ccccn1)N1CCN(C(=O)CSc2ccccn2)CC1	i	>57
O=C(COC(=O)c1ccc(S(=O)(=O)N2CCOCC2)cc1)NC1CCCCCC1	i	>57
Cc1noc(/C=C/NCc2cccnc2)c1S(=O)(=O)N(C)CC(=O)N1CCc2ccccc21	i	·
COC(=O)CNC(=O)Cc1c(F)cccc1Cl	i	>57
COC(=O)c1ccc2[nH]c(C)c(CN3CCCC3)c(=O)c2c1	i	>57

The list is partial (hit frequency here may not be typical).
